H5N1 antiviral: MDCK cell protection from H5N1 avian flu; actives 0.07% (n = 96,000); cytopathic effect, luminescence, 72 h; stronger effect = higher value; no value below 0 was filed and about half of the inactive calls have no number; reference of the scale not given here; inhibition, % at 50 µM; in the data active = inhibition above about 25%
Active calls of the source: *; i = inactive. The list is partial (hit frequency here may not be typical).

SMILES	H5N1 antiviral
COc1ccc(N2CC(C(=O)NCc3ccccc3)CC2=O)cc1 (stereo unspecified)	i
Cc1cc2oc(C(=O)Nc3cccnc3)c(C)c2cc1C	i
CCOC(=O)N1CCN(C(=O)CCCn2nc(C)c3sc4ccccc4c3c2=O)CC1	i
CC(=O)N(CCCN(C)C)CCC(C)CCC=C(C)C (stereo unspecified)	i
CC1=C(C(=O)Nc2cc(-c3cccc(F)c3)[nH]n2)C2(CCCCC2)OC1=O	6.0
COc1ccc(N(C(=O)COc2ccccc2OC)S(=O)(=O)c2ccc(C)cc2)cc1	i
COC(=O)C1=C(C)NC(=O)C1(NC(=O)CN1CCCC1=O)C(F)(F)F (stereo unspecified)	i
COc1cccc(N2C(N)=NC(N)=NC2(C)C)c1	2.1
O=C(Cn1c(NCCCO)nc2ccccc21)c1ccco1	0.2
CCC(CC)C(=O)Nc1ccc(C)c(O)c1	i
O=C(/C=C/c1ccc(F)cc1)NC(=S)Nc1ccccc1C(=O)NC1CCCCC1	i
O=c1[nH]c2ccc(NC(=S)Nc3ccc(Cl)cc3)cc2[nH]1	i
O=C(NCc1ccco1)c1nn2c(C(F)(F)F)cc(-c3cccs3)nc2c1Cl	i
FC(F)(F)c1ccccc1C1C2=C(Nc3ncnn31)c1ccccc1CCC2 (stereo unspecified)	i
O=[N+]([O-])c1ccccc1/C=C/CN1CCCCC1	1.6
NC(=O)c1cc2cc(Br)ccc2oc1=NCc1ccccc1	0.4
CCN(C(=O)CSc1nnc(Cc2ccccc2F)n1N)C1CCS(=O)(=O)C1 (stereo unspecified)	0.5
CCNc1nc(NC(C)C)nc(Oc2ccc(OCCOc3ccc(C)cc3)nn2)n1	8.1
O=C1Nc2ccc(S(=O)(=O)NCCC3=CCCCC3)c3cccc1c23	0.1
Cc1nn(CC(O)c2ccccc2)c(C)c1Br (stereo unspecified)	i
Cc1ccccc1-c1nc(CS(=O)(=O)CC(=O)NCc2ccccc2)c(C)o1	0.4
COCCCN1C(=O)c2[nH]nc(-c3ccccc3O)c2C1c1cccc(Cl)c1 (stereo unspecified)	0.2
O=C(NCCNC(=O)c1cc(OCC(F)(F)F)ccc1OCC(F)(F)F)Nc1ccccc1	i
CCOc1ccccc1N(CC(=O)N1CCCCCC1)S(C)(=O)=O	i

By substructure, those above with an NH in an aromatic ring (3)
SMILES	H5N1 antiviral
CC1=C(C(=O)Nc2cc(-c3cccc(F)c3)[nH]n2)C2(CCCCC2)OC1=O	6.0
O=c1[nH]c2ccc(NC(=S)Nc3ccc(Cl)cc3)cc2[nH]1	i
COCCCN1C(=O)c2[nH]nc(-c3ccccc3O)c2C1c1cccc(Cl)c1 (stereo unspecified)	0.2

Additional results.
SMILES	H5N1 antiviral
O=c1[nH]ncc2c3ccccc3n(Cc3ccccc3F)c12	0.8
CCOc1ccc(NS(=O)(=O)c2ccc(OC)c(C)c2)cc1	0.4
c1ccc(-c2nc(-c3ccco3)cs2)nc1	i
Cc1cc(C)cc(OCC(=O)Nc2ccc(N3CCN(S(C)(=O)=O)CC3)cc2)c1	i
COC(=O)c1ccc(CSc2nc(N3CCOCC3)c3c(c2C#N)CC(C)(C)OC3)o1	0.4
CCOC(=O)C1CCCN(C(=O)CNC(=O)Cn2ccc3ccccc3c2=O)C1 (stereo unspecified)	1.9
CCN(CC)S(=O)(=O)c1ccc(C(=O)C(C#N)c2ccccn2)cc1 (stereo unspecified)	i
Nc1c(C(=O)NC23CC4CC(CC(C4)C2)C3)sc2nc3c(c(C(F)(F)F)c12)CCC3	i
Cc1cc(C(=O)Nc2cccnc2)on1	i
COc1cccc(N2CCN(C(=O)C3CCCN(S(=O)(=O)c4cnc[nH]4)C3)CC2)c1 (stereo unspecified)	1.1
COCCN(C(=O)Cc1cccs1)c1nnc(-c2ccncc2)s1	i
CCC(C)(C(=O)NC1CCCC1)N(CC1CCCO1)C(=O)CNC(=O)c1ccccc1 (stereo unspecified)	1.6
COc1ccc(Cl)cc1NC(=O)CN(C)C1CCCCC1	i
Clc1ccc(Cn2cccc2C2=NCCO2)cc1	i
CCOc1cccc(N2C(=O)CC(n3cnc4ccccc43)C2=O)c1 (stereo unspecified)	2.0
COc1ccc2c(c1)C(C)=CC(C)(C)N2C(=O)C(C)N1C(=O)c2ccccc2C1=O (stereo unspecified)	0.1
COc1cccc(CN2C(=O)CCC2(C)C(=O)NC2CCCC2)c1 (stereo unspecified)	i
CCOc1ccc(NC(=O)c2ccccc2NC(=O)CN2CCN(C(C)=O)CC2)cc1	i
O=C(Cn1nnc(-c2ccc3c(c2)OCO3)n1)N1CCOCC1	i
O=P(c1ccccc1)(c1ccccc1)C(c1ccco1)N1CCOCC1 (stereo unspecified)	1.8
COc1ccccc1N1CCN(S(=O)(=O)c2ccccc2F)CC1	1.0
CN(CCNC(=O)CN1CCN(Cc2ccccc2Cl)C1=O)Cc1ccccc1	i
Cc1cccc(-c2noc(CN(C(=O)C(c3ccccc3)c3ccccc3)C(C)C)n2)c1	2.3
CCOC(=O)Nc1cc2c(C)cc(=O)oc2cc1C	i
CCOC(=O)C(C(C)=O)=C1SC2CS(=O)(=O)CC2S1 (stereo unspecified)	0.1
CCc1c(C(C)S(=O)(=O)c2ccc(C)cc2)[nH]c(=O)n1-c1ccc(OC(F)(F)F)cc1 (stereo unspecified)	i
Cc1ccc(-c2nnc(SCC(=O)Nc3ccc(S(=O)(=O)N4CCCCCC4)cc3)o2)cc1	0.8
CCCn1c(NC(=O)c2ccc(Cl)c(S(=O)(=O)N3CCCC3)c2)nc2ccccc21	i
O=C(CSc1nnc(Cc2ccccc2)o1)Nc1ccc(Br)cn1	i
CC(C)C12CN3CC(C(C)C)(CN(C1)C31C(=O)Nc3ccccc31)C2=O (stereo unspecified)	1.1
O=C(O)CCCCNCc1ccccc1	0.2
CCOC(=O)n1c(=O)n(Cc2ccc(Cl)c(Cl)c2)c2ccccc21	i
O=C(NCc1cccnc1)c1c(F)c(F)c(F)c(F)c1F	i
O=C(O)c1ccccc1C(=O)Nc1n[nH]c(=S)s1	0.2
Cc1cc(C)c(S(=O)(=O)N(C)Cc2cnn(C)c2)c(C)c1	i
COc1ccc(C2=NOC(C(=O)NCc3ccc(F)cc3)C2)cc1OC (stereo unspecified)	1.9
C[C@H](N)c1nnc(SCc2ccc(Cl)cc2Cl)o1	0.2
Clc1ccccc1-c1nnc2sc(-c3ccc4c(c3)OCO4)nn12	i
Cc1noc(C)c1COC(=O)CCOc1ccccc1	i
Cc1ccc(-n2[nH]c(=O)c3cccnc32)cc1	i
COC(=O)c1cn(CC(=O)N2CCCCCC2)c2ccccc12	1.7
Cc1ccc(N2C(=O)c3ccccc3C2Nc2ccccc2F)nc1 (stereo unspecified)	1.8
Cc1nnc(SCC(=O)Nc2nc3c(s2)CC(C)CC3)s1 (stereo unspecified)	1.5
COc1ccc(-n2c(SCC(=O)Nc3sc4c(c3C#N)CCCC4)nnc2-c2ccc(O)cc2)cc1	0.8
CC(C)(C)C(=O)Nc1nc(-c2ccc3c(c2)OCO3)cs1	0.8
N#Cc1c(N)n(CCOC(=O)c2ccc(Cl)cc2)c2nc3ccccc3nc12	i
Cc1cc(NC(=O)/C=C/c2ccccc2)no1	i
Cn1nc(C(=O)Nc2nc3ccc(S(C)(=O)=O)cc3s2)ccc1=O	i

The closing two entries of the part before come first, to join the parts.
SMILES	H5N1 antiviral
Cc1cc(NC(=O)/C=C/c2ccccc2)no1	i
Cn1nc(C(=O)Nc2nc3ccc(S(C)(=O)=O)cc3s2)ccc1=O	i
CCOC(=O)C1=C(C)NC(C)=C(C(=O)OCC)C1C1=COCCO1	i
Cc1ccc(Cn2c(Sc3nnc(C)s3)nc3c2c(=O)[nH]c(=O)n3C)cc1	2.6
O=c1cc2n(c(=O)[nH]1)CCC1=C2CCCC1	0.8
CCOC(=O)C1=C(C)Nc2ccccc2N=C1NC(=O)CCCN1C(=O)c2ccccc2C1=O	0.6
O=C(CCc1ccccc1)Nc1ccc(F)cc1F	0.3
COCCNC(=O)COc1ncnc2ccc(Br)cc12	i
COc1cccc(C(=O)Nc2nnc(-c3cccs3)o2)c1	5.5
CC(C)(C)CNC(CO)C12CC3CC(CC(C3)C1)C2 (stereo unspecified)	1.2
N#Cc1c(-c2ccccc2)c(-c2ccccc2)nn(CC(=O)NNC(=O)Nc2ccccc2)c1=O	3.5
NCC(CC(=O)O)c1ccc(Cl)cc1 (stereo unspecified)	0.3
O=C1C(O)CC2c3ccccc3CC3(CCCC3)N12 (stereo unspecified)	1.9
COc1ccc(OC)c(NC(=O)c2ccc(-n3cccn3)nc2)c1	i
O=C(COC(=O)c1cnccn1)Nc1ccc(Cl)cc1	i
Cc1ccc(CSCC(Nc2ccc(C(=O)O)cc2[N+](=O)[O-])C(=O)O)cc1 (stereo unspecified)	1.8
Cc1ccc(C2C3=C(CC(C)(C)CC3=O)N(CCN3CCOCC3)C3=C2C(=O)CC(C)(C)C3)cc1	0.1
CC(=O)NC1(C(F)(F)F)C(=O)Nc2c1c(=O)n(C)c(=O)n2C (stereo unspecified)	0.2
CCC(=O)Nc1c2c(nn1-c1ccc(F)cc1)CS(=O)C2 (stereo unspecified)	0.9
Cc1ccccc1OCCCN1CCCC1	1.3
CCNC(=O)CSc1nc2ccccc2c(=O)n1OC	0.8
CCOC(=O)N1CCN(C(=O)c2ccc3c(=O)n(Cc4ccccc4OC)c(=S)[nH]c3c2)CC1	i
COc1ccc(-c2nc(-c3ccc(Br)o3)no2)cc1OC	i
Cc1cc(=O)[nH]c2c(C)c(N)ccc12	i
CCOC(=O)C1CCN(C(=O)c2cc3c(-c4ccc(OC)c(OC)c4)nn(C)c3s2)CC1	i
Cc1[nH]n2c(=O)cc(C(C)C)nc2c1-c1ccccc1	i
CCOC(=O)C1CCCN(c2nc3ccccc3nc2C(C#N)C(=O)OCCOC)C1 (stereo unspecified)	0.9
O=C(Cn1ncn2c(cc3ccccc32)c1=O)NCCC1=CCCCC1	2.4
CC1(C)C(=O)Nc2ccccc2N1C(=O)COc1ncnc2ccccc12	i
O=S1(=O)CCN=C2SC3=C(CCCC3)N21	0.5
O=C(Nc1ccc(N2CCOCC2)c(Cl)c1)c1ccccc1F	0.6
CC(C)(NO)/C(=N\O)c1ccc(Cl)cc1	i
C=CCn1c(SCC(N)=O)nnc1-c1ccccc1O	0.7
Cc1ccc(-c2nc3cnccn3c2Nc2ccc3c(c2)OCO3)cc1	1.8
CC(C)(C)c1ccc(-c2conc2N)cc1	0.2
Cc1cc(NC(=O)CSc2nnc(Cc3cccn3C)n2CCc2ccccc2)no1	i
CCc1[nH]nc2c1C(c1ccncc1)C(C#N)=C(N)O2 (stereo unspecified)	i
COC(=O)C1=C(C)NC(=O)C1(NS(=O)(=O)c1ccc(NC(C)=O)cc1)C(F)(F)F (stereo unspecified)	i
O=C(O)c1cccc2cccnc12	i
O=C(c1ccccc1)c1ccc(OCCn2cnc3ccccc3c2=O)cc1	i
Cn1c(SCC(=O)NCCc2ccccc2)nnc1-c1ccncc1	i
CCn1c(N2CCN(C(=S)NCCc3ccccc3)CC2)nc2ccccc21	1.2
Cc1ccc(Oc2ccc(N)cc2)cc1	i
COC(=O)c1ccc(Cl)c(NC(=O)CN2CCC(C)CC2)c1	3.1
O=C(/C=C/c1ccc2c(c1)OCO2)NCCSCc1cccc(Cl)c1	i
CC(=O)N1CN2CN(C(C)=O)CC(C(=O)c3ccc(Br)cc3)(C2)C1	i
CCOC(=O)N1CCC(NC(=O)c2cccc3c2C(=O)N(c2ccc(OC)cc2)C3)CC1	i
CCOC(=O)CSc1nnc(-c2cccnc2)n1Cc1ccccc1	i
CNC(=S)N1N=C(c2ccc(C)cc2)CC1c1ccc(Cl)cc1 (stereo unspecified)	4.7
COC(=O)Cn1c(=O)c2c(nc(Br)n2CC(=O)OC)n(C)c1=O	i

3 entries from above, arranged by SMILES length, lowest first.
SMILES	H5N1 antiviral
Cc1ccc(Oc2ccc(N)cc2)cc1	i
Cn1c(SCC(=O)NCCc2ccccc2)nnc1-c1ccncc1	i
O=C(c1ccccc1)c1ccc(OCCn2cnc3ccccc3c2=O)cc1	i

Retrieved by structure from the entries so far:
SMILES	H5N1 antiviral
Cn1c(SCC(=O)NCCc2ccccc2)nnc1-c1ccncc1	i
COC(=O)c1ccc(Cl)c(NC(=O)CN2CCC(C)CC2)c1	3.1
Cc1ccc(Oc2ccc(N)cc2)cc1	i
CNC(=S)N1N=C(c2ccc(C)cc2)CC1c1ccc(Cl)cc1 (stereo unspecified)	4.7

(next part)
SMILES	H5N1 antiviral
COC(=O)CCS(=O)(=O)c1nc(-c2ccccc2)cc(C(F)(F)F)n1	1.0
CCC(=O)N1CCc2cc(S(=O)(=O)CCC(=O)Nc3cccc(F)c3)ccc21	i
CC12CC(c3ccccc3O1)N(C(=O)c1ccco1)C(=O)N2c1ccccc1 (stereo unspecified)	1.8
Cc1sc2ncnc(NCC3CCCO3)c2c1C (stereo unspecified)	i
c1ccn2cc(CSC3=NCCS3)nc2c1	3.1
CCOC(=O)c1cnn(-c2cc(C)c3ccccc3n2)c1N	i
O=C(Nc1ccccc1)OCN1C(=O)c2ccccc2C1=O	i
COc1ccc(S(=O)(=O)NC(CC(=O)NCCc2ccccc2)c2ccco2)cc1 (stereo unspecified)	i
COc1ccc(C(CNC(=O)C2CC(=O)N(Cc3ccc(C)cc3)C2)N(C)C)cc1 (stereo unspecified)	i
CCN(Cc1ccccc1)C(c1ccccn1)c1nnnn1C(C)(C)CC (stereo unspecified)	0.7
COC(CNc1cc(=O)oc2ccccc12)OC	0.4
COC(=O)Cn1nnc(-c2cccc(OC)c2)n1	0.7
COc1ccc(CCNC(=O)c2cc3sc(Cl)cc3n2C)cc1OC	0.3
CCOC(=O)c1sc(=NC(=O)c2cccc(OC)c2)n(C)c1C	0.7
COc1ccc(-c2nc(NC(=O)Cn3ccc(C(F)(F)F)n3)sc2C)cc1	0.7

High-throughput results deposited in PubChem by SRMLSC.
